# CtBP-E1A blk: blocks the CtBP interaction with E1A | AlphaScreen GST-E1A/His-CtBP binding, 1536-well; hits give low values; control for the full effect not named in the record | activity change, % (no concentration beside the values) | 340,000 tested, 0.49% active | AID 651724; in the data active means activity change below about -65%; inconclusive means about -30% to -65%; inactive means above about -30%; note: % is set by controls: 0 for no effect and ±100 for the full control effect; compound concentration not given in the record
#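 In 5 uL wells, 23 nL compound meets equimolar GST-E1A and His-CtBP (5X stock 125 nM each) for 2 h, 37 °C. Beads (5X, 50 ug/mL) then 1 h, 37 °C, dark.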
# D2 potentiator: positive allosteric modulators of human D2 dopamine receptor. P14416. DiscoveRx D2 beta-arrestin cells, luminescence, 90 min; 100% = 57 uM dopamine signal. potentiation, % (test concentration not listed). 360,000 tested, 0.23% active. AID 624464; active = potentiation of 50% or more; inconclusive = 30% to 50%; inactive = 30% or less;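 note: compound concentration not given in the record; tested on top of an EC20 dose of dopamine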
# Target sequence (P14416 whole entry, looked up): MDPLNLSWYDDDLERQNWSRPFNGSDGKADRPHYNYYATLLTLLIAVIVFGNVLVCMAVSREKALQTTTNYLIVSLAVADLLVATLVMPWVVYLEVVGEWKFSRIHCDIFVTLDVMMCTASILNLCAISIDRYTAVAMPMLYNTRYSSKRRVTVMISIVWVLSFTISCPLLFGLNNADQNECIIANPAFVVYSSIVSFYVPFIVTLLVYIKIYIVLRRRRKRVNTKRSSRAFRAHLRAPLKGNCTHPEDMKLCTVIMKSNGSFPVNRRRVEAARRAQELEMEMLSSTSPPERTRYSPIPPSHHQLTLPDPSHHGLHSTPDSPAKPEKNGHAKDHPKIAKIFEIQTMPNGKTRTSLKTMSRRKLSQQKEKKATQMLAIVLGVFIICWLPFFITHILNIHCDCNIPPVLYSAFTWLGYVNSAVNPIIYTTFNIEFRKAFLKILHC
#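 D2 cells co-treated with compound plus 50 nM dopamine (EC20) for 90 min at 37 deg C to detect potentiation. Beta-arrestin recruitment was read as enzyme-fragment luminescence after 1 h at ambient temperature. Full response was set by 57 uM dopamine.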
# TRPV1 potentiator: human TRPV1 potentiation | Q8NER1 | TRPV1-expressing cells, Fluo-8 calcium influx, capsaicin EC20 potentiation; host cell line not named in the record; control for the full effect not named in the record | potentiation, % at 8.33 µM | 320,000 tested, 0.02% active; active means potentiation above 80%; inconclusive means 30% to 80%; inactive means below 30%; note: 0% is about no effect
#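 Fluo-8 calcium influx in TRPV1-expressing cells, kinetic read (ex 480/em 520 nm). Compound added and read 3 min for agonist activity, followed by capsaicin at EC20 final and 2 min further read for enhancement.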
# D2 ag: activates the human D2 dopamine receptor; P14416; DiscoveRx PathHunter D2 beta-arrestin, luminescence, 90 min; 100% = 57 uM dopamine signal; activation, % (no concentration beside the values); 360,000 tested, 0.084% active; AID 624465; in the data active = activation above about 40%; inconclusive = about 15% to 40%; inactive = below about 15%; note: compound concentration not given in the record; the text of the record calls up to 30% inactive
#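 Agonist mode: compounds alone added to overnight-plated D2 PathHunter cells for 90 min at 37 C, with 57 uM final dopamine (EC100) defining full response. Beta-arrestin recruitment detected by chemiluminescent reagent, read after 1 h at ambient temperature.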
# PINK1 expr mod: PINK1 expression modulation; PINK1 immunofluorescence, high-content cytometry, 24 h; Potency, µM (top dose mostly 76.6 µM), for the others: at the top dose activation (PINK1 increase), actives largely listed as activators; 410,000 tested, 0.2% active; AID 624263; active = well fitted activation curve with a large enough effect; inconclusive = small, poorly fitted or top-dose-only effect; inactive = flat fitted curve, though single readings scatter; cell line not stated here;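 note: potency is the fitted concentration of half-maximal effect; % of control where 0% means no effect; nearly all actives have a fitted effect of over 65% in size; a mitochondrial uncoupler was the plate control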
#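 Cells are seeded, rested 12 hours, then given compound at five concentrations or DMSO for 24 hours. After fixation, blocking and antibody staining, PINK1 amount and mitochondrial localization are scored; CCCP serves as control.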
# Six1-Eya2 inh: Six1/Eya2 interaction inhibition. 360,000 tested, 0.56% active. AID 651725. activity change, % (test concentration not listed). AlphaScreen GST-Six1/His-Eya2 binding, biochemical; hits give low values; control for the full effect not named in the record. Q15475+O00167; in the data active = activity change below about -65%; inconclusive = about -30% to -65%; inactive = above about -30%; note: % is set by controls: 0 for no effect and ±100 for the full control effect; compound concentration not given in the record
#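 Six1/Eya2 binding was read as AlphaScreen signal after compounds were pinned into GST-Six1 plus His-tagged Eya2 (5X stock 250/500 nM) in pH 8.0 Tris/NaCl/TCEP buffer, beads added, then incubated 1 h, 37 C, dark.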
# Sfp inh: blocks B. subtilis Sfp PPTase activity; Q9F4F7; Biochemical Sfp PPTase activity, qHTS; Potency, µM, for the others: max response, negative = inhibition, most hits filed as inhibitors; 310,000 tested, 3.5% active; AID 1490; active = well fitted inhibition curve with a large enough effect; inconclusive = small, poorly fitted or top-dose-only effect, or another doubt; inactive = no such curve, though single readings can be large or run the other way;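 note: the enzyme is Sfp with the accession as filed and its product quenches rhodamine fluorescence; potency is the fitted concentration of half-maximal effect; 0% = enzyme reaction without inhibitor and -100% = no enzyme wells; top concentration of the series not given in the record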
#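 Step 1, compound plus 15 nM Sfp-PPTase, 15 min, room temperature. Step 2, add rhodamine-CoA (5 uM) and BHQ-2-YbbR (12.5 uM). Step 3, read 525/598 nm fluorescence at 0 and 30 min.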
# The depositor's hits bear a star; u = inconclusive; x = no result given; & = joins results of further samples; [ ] = another dose, or the depositor's remark.
# Every second line gives: CtBP-E1A blk, D2 potentiator, TRPV1 potentiator, D2 ag, PINK1 expr mod, Six1-Eya2 inh, Sfp inh
COc1ccc(NC(=O)CCNS(=O)(=O)c2ccc3c(c2)CCC(=O)N3)cc1
 : 6, -2, 0, 2.4, -1.6%[38.3 µM], 0, 30%
Cc1c(NC(NC(=O)CC(C)C)C(Cl)(Cl)Cl)c(=O)n(-c2ccccc2)n1C (stereo not given)
 : 6, 7, 20, -1.2, 2.1%, 3, 7%
Cc1cccc(C(=O)OCC(=O)NCc2ccc3c(c2)OCO3)c1C
 : x, 0, x, 0.0, 1.1%, -8, x
Cc1csc(SCC(=O)Nc2nc3ccccc3s2)n1
 : 9, -21, 4, -0.3, -2.0%, 1, 8%
CC(C)CN1CCNC(=O)C1CC(=O)NCCc1ccc(C(F)(F)F)cc1 (stereo not given)
 : 4, -9, -2, -2.4, 0.8%, 4, -8%
CNc1nc2c(C)cccn2c(=O)c1C=Nc1ccc(OC)cc1
 : x, -11, -3, -6.6, -0.7%, -8, -2%
O=C(Cc1c(O)c2ccccc2[nH]c1=O)N(Cc1ccccc1)Cc1ccccc1
 : 42, 6, 12, -0.6, -6.9%[38.3 µM], 25, 18%
CC(C)c1ccc(/C=C(\NC(=O)c2ccccc2)C(=O)NCCCN2CCOCC2)cc1
 : -3, -2, -7, -0.2, -0.9%, 11, 8%
CCOC(=O)Cc1csc(SCC(=O)N2CCN(c3ccccc3)CC2)n1
 : 10, -8, x, -5.5, 0.6%, 6, x
COc1ccc(CCNC(=O)CSc2nnc(CNC(=O)c3ccccc3F)o2)cc1OC
 : 4, -20, 6, 1.2, 2.2%, 0, 22%
COCCN1C(=O)C(=O)/C(=C(/O)c2ccc(S(=O)(=O)N3CCCCC3)cc2)C1c1ccc(OC)cc1 (stereo not given)
 : 0, -5, 3, 1.1, -1.0%, 9, 0%
COCc1cccc(-c2csc(C(O)c3ccc(F)cc3)n2)c1 (stereo not given)
 : 7, -4, x, -6.4, 2.7%, 29, x
CCCn1c(N2CCN(CC(=O)c3c[nH]c4ccccc34)CC2)nc2c1c(=O)[nH]c(=O)n2C
 : -4, -11, 13, -7.3, 0.3%, 1, -27%
CC(=O)Nc1cccc(NC(=O)CSc2nnc3ccc(-c4ccccn4)nn23)c1
 : 0, -20, -2, -6.1, 4.0%, -9, x
O=C(O)CCC(=O)NNC(=O)CCC(=O)Nc1ccccc1
 : x, -3, 5, -1.3, -0.4%, -5, -10%
Cc1cc(C)c(C)c(Cn2c(CO)nc3ccccc32)c1C
 : -5, 27, -1, 0.9, 0.6%, -3, 12%
CCOC(=O)C1=C(C)C(c2ccccc2)NC(=S)N1 (stereo not given)
 : 3, -6, 5, -1.7, u, -3, 0%
C/C(=N\NC(=O)c1ccccc1O)C1CC1
 : -4, -7, -16, -3.7, 0.2%, -6, 2%
CCCN(CC(=O)Nc1ccccc1OC)C(=O)CNC(=O)c1ccc(C)s1
 : -2, -2, x, -1.6, 1.7%, 4, x
COC(=O)c1ccc(-c2noc(CN(C)CCC3CCCCO3)n2)cc1 (stereo not given)
 : 1, -4, 4, 2.5, -1.4%, 6, 0.71µM*

# Carrying on.
# Every second line gives: CtBP-E1A blk, D2 potentiator, TRPV1 potentiator, D2 ag, PINK1 expr mod, Six1-Eya2 inh, Sfp inh
CC(C)N(Cc1cc2ccccc2[nH]c1=O)C(=O)C(C)(C)C
 : 0, -30, -13, -3.6, 1.5%, 1, -3%
Cc1c(C(=O)N2CCN(Cc3ccccc3)CC2)oc2c1C(=O)CC(C)(C)C2
 : 0, -10, -25, -0.6, -0.1%, 0, -28%
COc1ccc(CCc2nc(-c3ccc(-n4cccc4)cc3)no2)cc1
 : 5, 0, x, 5.4, 3.2%, -3, -7%
Cc1ccc(NNC(=O)c2snnc2C)cc1Cl
 : -18, -16, -2, -1.3, 2.3%, -15, -6%
O=C(O)c1cccc(S(=O)(=O)Nc2ccc(-c3ccccc3)cc2)c1
 : 0, -4, x, -2.5, -0.2%, -1, x
CCN(CC(=O)Nc1ccc2c(c1)OCCO2)C(=O)CC1CCCC1
 : 7, 15, -2, -2.8, -1.5%, 1, 6%
CC(C)NC(=O)CSc1nc2ccccc2c(=O)n1CCCOC(C)C
 : 9, -15, -5, -1.5, x, 4, 14%
O=C(CSc1nnc(CNC(=O)c2ccco2)o1)Nc1ccc(OC(F)(F)F)cc1
 : x, -13, -9, -2.3, -1.0%, 8, 12%
COc1ccc(NC(=O)C2(C)Cc3c(-c4ccc(C(N)=O)cc4)ccnc3O2)cc1 (stereo not given)
 : 0, -9, x, -1.6, 1.2%, 3, x
CCCCS(=O)(=O)NC1=NCN(CCOC(=O)c2ccccc2)CN1
 : 3, -5, x, 0.0, 1.5%, -1, x
C=CCc1cccc2cc(C(=O)NC(C)(C)C)c(=O)oc12
 : -17, 11, -12, -0.3, 1.2%, 8, 3%
Cc1ccc(S(=O)(=O)NCCC(c2ccc(F)cc2)c2ccco2)cc1 (stereo not given)
 : -14, -5, 6, -2.4, 29%, 4, 13%
CC1CCN(C(=O)CCC(=O)Nc2ccc([N+](=O)[O-])cc2)CC1
 : -9, -9, x, -2.6, 0.6%, 0, x
CCOc1ccc(C2N(c3ccc(Cl)cc3)C(=O)C3CCCN32)cc1OC (stereo not given)
 : -9, -3, x, -1.0, 2.2%, -13, 1%
CCOC(=O)C1=C(C)N(CCCC(=O)O)C(=O)NC1c1cccc(OC)c1 (stereo not given)
 : 6, -20, x, -3.3, 1.4%, -2, x
Cc1ccc(C(=O)CC2(O)C(=O)N(CN3CCOCC3)c3ccccc32)cc1 (stereo not given)
 : 3, -4, x, -3.1, 0.8%, 0, 11%
Cc1ccc(C)c(Oc2ncnc(N)c2[N+](=O)[O-])c1
 : 5, -4, -1, -2.0, 0.1%, -1, -4%
CCC(CC)c1nnc(NC(=O)c2cccc(S(=O)(=O)N3CCc4ccccc43)c2)s1
 : -1, 1, -6, -0.6, 1.0%[38.3 µM], -2, 10%
CC(C)CN1CCN(Cc2cn(C)c3ccccc23)CC1CCO (stereo not given)
 : 5, -12, -13, 3.0, -0.9%, 1, 31%[activator]
COc1ccc(Cn2c(=O)c3[nH]cnc3n(-c3ccccc3C)c2=O)cc1
 : 5, 3, 12, 0.1, 5.6%, 0, -4%

# 4 neighbouring entries out of the list so far, quoted:
# Every second line gives: CtBP-E1A blk, D2 potentiator, TRPV1 potentiator, D2 ag, PINK1 expr mod, Six1-Eya2 inh, Sfp inh
Cc1ccc(C)c(Oc2ncnc(N)c2[N+](=O)[O-])c1
 : 5, -4, -1, -2.0, 0.1%, -1, -4%
CCC(CC)c1nnc(NC(=O)c2cccc(S(=O)(=O)N3CCc4ccccc43)c2)s1
 : -1, 1, -6, -0.6, 1.0%[38.3 µM], -2, 10%
CC(C)CN1CCN(Cc2cn(C)c3ccccc23)CC1CCO (stereo not given)
 : 5, -12, -13, 3.0, -0.9%, 1, 31%[activator]
COc1ccc(Cn2c(=O)c3[nH]cnc3n(-c3ccccc3C)c2=O)cc1
 : 5, 3, 12, 0.1, 5.6%, 0, -4%

# The listing continues.
molecule	CtBP-E1A blk	D2 potentiator	TRPV1 potentiator	D2 ag	PINK1 expr mod	Six1-Eya2 inh	Sfp inh
CN(C(=O)C(Cl)Cl)c1ccc(OC(=O)c2ccco2)cc1	0	-3	5	-2.0	0.5%	-4	20%&2%
Cc1ccc(/C=C2/C(=N)N3N=C(CC(=O)N4CCCC4)SC3=NC2=O)o1	x	-8	14	-4.1	0.8%	0	-5%
O=C(C(=O)N1CCN(c2ccc(F)cc2)CC1)c1c[nH]c2ccccc12	-5	-15	10	1.3	-0.1%	-7	13%
CC(NC(=O)Cn1ccsc1=N)C12CC3CC(CC(C3)C1)C2 (stereo not given)	2	-17	9	-4.3	2.4%	-3	6%
O=C(c1cccs1)N(Cc1nc2sc3c(c2c(=O)[nH]1)CCCC3)C1CCCC1	-25	-19	12	-3.4	0.4%	-6	-15%
CN(C)C(CNC(=O)c1ccc(S(=O)(=O)Nc2ccccc2)cc1)c1ccco1 (stereo not given)	2	-17	8	-9.1	1.6%	3	x
COc1ccccc1NS(=O)(=O)c1ccc(C(=O)NCc2ccncc2)cc1	4	-15	0	-6.3	0.7%	-5	x
CCCCc1cc(=O)oc2cc(OCC(=O)N3CCOCC3)ccc12	0	1	0	-0.9	-2.3%	9	19%
CCN1C(=O)/C(=C/c2nc3ccccc3c(=O)n2-c2ccccc2)c2ccccc21	0	-3	2	-3.2	3.1%	15	-12%
COc1ccc(CC(=O)Nc2nc(-c3ccccc3)c(C(C)=O)s2)cc1OC	-8	-8	-19	-0.1	7.1%	-25	-10%
Cc1ccc(C(O)c2ncc(-c3cccc(C(F)(F)F)c3)[nH]2)cc1F (stereo not given)	-9	-18	x	-0.6	4.6%	-15	x
O=[N+]([O-])c1cc(S(=O)(=O)N2CCOCC2)ccc1N1CCCC1	2	3	-14	8.3	1.2%	1	11%
COc1ccccc1NC(=O)c1cc(S(=O)(=O)NC2CCCC2)ccc1F	-26	-14	-2	0.9	0.4%	-8	1%
COCCCN1C(=O)C(CC(=O)NCCCCc2ccccc2)CC(C(=O)N2CCOCC2)=C1C (stereo not given)	-6	2	x	2.8	3.1%	-8	x
CCN1CCN(c2nnc(-c3ccc(C)cc3)c3ccccc23)CC1	-1	-28	4	-7.2	-1.1%	-3	-16%
O=c1cc(CCl)[nH]c2nc3ccccc3n12	-4	-2	1	-4.0	5.1%	-1	3%
O=c1/c(=C/c2cccc3ccccc23)sc2ncnn12	0	-7	19	-2.1	2.6%	9	12%
Fc1ccc(CSc2ncnc3ccccc23)cc1	25	-29	-14	-5.1	0.1%	25	-1%
COc1ccc(CNc2ccc(-c3ccc(OC)cc3)nn2)cc1	-4	9	7	0.6	-0.1%[38.3 µM]	-1	13%
CCCC(C)NC(=O)Cc1ccccc1 (stereo not given)	x	-13	-24	-3.0	-0.9%	2	22%
COc1cc(CN2CCN(CCc3ccccc3)C(CCO)C2)cc(OC)c1 (stereo not given)	4	-50	-8	-7.3	-0.6%	-4	0%

# Rows are unselected; any-hit rate near 3.7%.
